HTT promoter inh: HTT promoter inhibition; HEK293 HTT promoter firefly luciferase reporter (activity 0% = vehicle and -100% = no light), 24 h; Potency, µM (top dose mostly 57.5 µM), for the others: top-dose activity change, negative = inhibition, hits mostly inhibitors; 0.93% of 48,000 active; AID 1508623; active = well fitted inhibition curve with a large enough effect; inconclusive = small, poorly fitted or top-dose-only effect; inactive = no such curve, though single readings can be large or run the other way; note: nearly all actives have a fitted effect of over 50% in size
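Luminescence was read after Dual-Glo reagent and a 10 min room-temperature incubation. Values were normalized to vehicle (0% activity) and zero RLU (-100% activity). Reporter HEK293 cells had been exposed to compounds (up to 57.5 uM final) for 24 h.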
PMP22 txn: modulates PMP22 transcription in S16 Schwann cells | S16 Pmp22-F2sN Schwann cells (luciferase reporters placed in the Pmp22 gene), FLuc/NLuc coincidence luminescence, 24 h | Potency, µM (doses to about 57.5 µM), inactives show at the top dose activity change, negative = inhibition, hits mostly inhibitors | 2% of 43,000 active | AID 1508649; active = clear falling dose curves in both reporters; inconclusive = both reporters move, but less clearly or upward; inactive = either reporter flat; the % is the NLuc reporter signal; note: % is set by controls: 0 for no effect and ±100 for the full control effect; some results filed as inactive show a strong effect at the top dose
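Transcriptional readout in edited S16(c9) cells: two luciferases reported from the Pmp22 locus, measured in turn after 24 h compound incubation.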
* hit, by the source's call; ? = inconclusive; nt = no result given; [ ] = another dose, or the depositor's remark. Potency is the fitted concentration of half-maximal effect.

SMILES | HTT promoter inh | PMP22 txn
Cc1ccc(C)c(N2CCN(C(=O)C3CCC(CNS(=O)(=O)c4cccs4)CC3)CC2)c1 (centres undefined) | ? | ?
Cc1c(C)c2c(cc(C)c3c(-c4ccccc4)coc32)oc1=O | -9% | -1%
COc1ccc(CNS(=O)(=O)c2ccc(C(=O)N(C)C)s2)cc1 | -24% | -27%
O=C(Nc1ccc2nc(SCC(=O)N3CCCC3)sc2c1)c1ccc(Br)cc1 | -15% | -40%
CCc1ccc(C(=O)NC2=NC(c3cc(OC)ccc3OC)CC(=O)N2)cc1 (centres undefined) | -21% | 43%
Cc1ccc(CNC(=O)c2c(-c3cccc(Br)c3)noc2C)o1 | -18% | ?
CCOc1ccc(-c2nonc2NC(=O)c2oc3c(C)c(C)ccc3c2C)cc1OCC | -30% | -11%
Cc1cc(C)cc(NC(=O)Cn2nnc(C(=O)Nc3cc(C)cc(C)c3)c2N)c1 | ? | ?
CCOC(=O)Oc1ccc(CCNC(=O)[C@H](CCSC)NC(C)=O)cc1OC(=O)OCC | 1% | nt
CCC(=O)N1c2ccccc2CC1C(=O)N1CCN(c2cccc(Cl)c2)CC1 (centres undefined) | -8% | -9%
Cc1noc(/C=C/c2ccco2)c1S(=O)(=O)N1CCC(C(=O)Nc2ccc(F)cc2F)CC1 | -18% | ?
O=C(NOCC(O)CO)c1cc(Br)c(F)c(F)c1Nc1ccc(I)cc1F (centres undefined) | -12% | nt
CCOc1cc(CNC(=O)c2ccc3nc(CCc4ccccc4)oc3c2)ccc1OC | -12% | -2%
Cc1ccc(NC(=O)Cn2cc(S(=O)(=O)N3CCCC3)c(S(=O)(=O)N3CCCC3)c2)cc1C | ? | -26%
CCOc1ccc(CNC(=O)c2ccc(NC(=O)N3CCCCc4ccccc43)cc2)cc1 | -8% | -21%
COc1cc(C(=O)NCCSc2c(C)[nH]c3ccccc23)cc(OC)c1OC | -10% | -13%
CC(C)C(C)C=CC(C)C1CCC2C3=CC=C4CC(O)CCC4(C)C3CCC21C (centres undefined) | ? | nt
COC(=O)c1ccccc1NC(=O)c1ccc2c(c1)CCN2S(=O)(=O)c1ccc(C)cc1 | -8% | 9%
CCN(CCCNC(=O)c1cc2cc3ccc(C)cc3nc2s1)c1ccccc1 | ? | -24%
O=C(CSCc1ccc(F)cc1)N1CCN(c2ccc(Cl)cc2)CC1 | ? | -28%
COc1ccccc1CNS(=O)(=O)c1ccc(N2CCCCS2(=O)=O)cc1 | ? | ?
Cc1ccc(-c2noc(CSc3nnc(Cc4ccccc4)n3-c3cccc(C)c3)n2)cc1 | ? | -21%
CNC(=O)C1CCC(Cn2c(=O)c3sccc3n(CC(=O)NCc3ccc(F)cc3)c2=O)CC1 (centres undefined) | -15% | 16%
Cc1ccc(S(=O)(=O)c2nnn3c2nc(NCc2ccc4c(c2)OCO4)c2sccc23)cc1C | -29% | ?
CCCN1C(C(=O)c2ccccc2)=C(OC(=O)COc2ccc(C)cc2)c2ccccc2S1(=O)=O | ? | ?
CCN(CC)C(=O)c1c(NC(=O)c2ccccc2F)sc2c1CCC(C(C)(C)C)C2 (centres undefined) | ? | ?
COc1ccc(-c2cc(C)no2)cc1S(=O)(=O)N1CCOc2ccccc21 | -23% | -15%
OC[C@H]1O[C@@H](Oc2ccc(O)cc2)[C@H](O)[C@@H](O)[C@H]1O | -6% | nt
CCC1CCCCN1C(=O)Cn1c(=O)cc(C(F)(F)F)c2c(C)nn(C)c21 (centres undefined) | -5% | -23%
COC(=O)c1ccc(NC(=O)CN(CCc2ccccc2)S(=O)(=O)c2ccc(OC)cc2)cc1 | ? | -4%

An excerpt from further up:
SMILES | HTT promoter inh | PMP22 txn
CCN(CCCNC(=O)c1cc2cc3ccc(C)cc3nc2s1)c1ccccc1 | ? | -24%
O=C(CSCc1ccc(F)cc1)N1CCN(c2ccc(Cl)cc2)CC1 | ? | -28%
COc1ccccc1CNS(=O)(=O)c1ccc(N2CCCCS2(=O)=O)cc1 | ? | ?
Cc1ccc(-c2noc(CSc3nnc(Cc4ccccc4)n3-c3cccc(C)c3)n2)cc1 | ? | -21%
CNC(=O)C1CCC(Cn2c(=O)c3sccc3n(CC(=O)NCc3ccc(F)cc3)c2=O)CC1 (centres undefined) | -15% | 16%
Cc1ccc(S(=O)(=O)c2nnn3c2nc(NCc2ccc4c(c2)OCO4)c2sccc23)cc1C | -29% | ?
CCCN1C(C(=O)c2ccccc2)=C(OC(=O)COc2ccc(C)cc2)c2ccccc2S1(=O)=O | ? | ?
CCN(CC)C(=O)c1c(NC(=O)c2ccccc2F)sc2c1CCC(C(C)(C)C)C2 (centres undefined) | ? | ?
COc1ccc(-c2cc(C)no2)cc1S(=O)(=O)N1CCOc2ccccc21 | -23% | -15%
OC[C@H]1O[C@@H](Oc2ccc(O)cc2)[C@H](O)[C@@H](O)[C@H]1O | -6% | nt
CCC1CCCCN1C(=O)Cn1c(=O)cc(C(F)(F)F)c2c(C)nn(C)c21 (centres undefined) | -5% | -23%
COC(=O)c1ccc(NC(=O)CN(CCc2ccccc2)S(=O)(=O)c2ccc(OC)cc2)cc1 | ? | -4%

Next section.
SMILES | HTT promoter inh | PMP22 txn
Cc1cccc(N2CCN(S(=O)(=O)c3c(C)nc4scc(C)n4c3=O)CC2C)c1 (centres undefined) | -20% | ?
Cc1ccc(Cn2c(C(=O)O)c(CNCc3ccc(C)o3)c3ccc(C)cc32)cc1 | -24% | -29%
Cc1ccc(CNC(=O)c2ccc(Cn3c(=O)c4ccccc4n(CC(=O)Nc4c(C)cc(C)cc4C)c3=O)cc2)cc1 | -4% | 16µM*
COc1cc(OC)c(C2Nc3c(C)cccc3-c3cc(C)nn32)cc1OC (centres undefined) | -28%[11.5 µM] | -46%
O=C(Nc1ccc(Cl)cc1)N1CCC(c2ccccc2)C1 (centres undefined) | 42%[activator] | -17%
COc1cccc(-c2cc(C(F)(F)F)n3nc(-c4ccc(C)cc4)cc3n2)c1 | -20% | -28%
Cc1ccccc1NC(=O)CCn1cnc2onc(-c3ccc(F)cc3)c2c1=O | ? | -28%
CCn1c(=O)cc(SCC(=O)NCc2cccc(Cl)c2)c2ccccc21 | -27% | ?
CCSc1ncc(Cl)c(C(=O)Nc2c(C(=O)c3ccccc3)oc3ccccc23)n1 | -13% | -62%
COc1ccc2c(c1)CC(NC(=O)Nc1ccc(NC(C)=O)cc1)CO2 (centres undefined) | 1% | -20%
CCCS(=O)(=O)c1nc(S(=O)(=O)c2ccc(C)cc2)c(NC(C)c2ccccc2)s1 (centres undefined) | -17% | ?
Cc1cccc(C(C)C)c1NC(=O)C(NS(=O)(=O)c1cccc2nsnc12)c1ccccc1 (centres undefined) | ? | 0%
Cc1cccc(-c2nc(SCc3cc(=O)c4c(C)cc(C)cc4[nH]3)n[nH]2)c1 | -25% | -17%
CCOc1ccc(NS(=O)(=O)c2ccc3[nH]cc(C(=O)NC4CCCC4)c(=O)c3c2)cc1 | -24% | -25%
COc1cccc(Nc2cc(C)nc3nc(-c4ccc(Cl)cc4)nn23)c1 | -5% | -4%
COc1ccc(N2CCN(C(CNC(=O)C(=O)NCc3ccc(C)cc3)c3cccnc3)CC2)cc1 (centres undefined) | ? | -31%
Cc1cccc(NC(=O)c2cc(-c3ccc4c(c3)OCCO4)on2)c1 | -24% | -9%
COCCCNC(=O)c1sc2nc(C)c(C(=O)Nc3ccc(C)cc3C)c(-c3ccc(Cl)cc3)c2c1N | ? | -9%
O=C(NCc1ccc2c(c1)CCN2C(=O)c1ccccc1)Nc1cccc(C(F)(F)F)c1 | 22µM* | -12%
COc1ccc(OC)c(CCNC(=O)c2csc3c2CCCCC3)c1 | -20% | -18%

Complete entries from above. Values in the order: HTT promoter inh | PMP22 txn
CCSc1ncc(Cl)c(C(=O)Nc2c(C(=O)c3ccccc3)oc3ccccc23)n1 as listed: -13% | -62%
CCOC(=O)Oc1ccc(CCNC(=O)[C@H](CCSC)NC(C)=O)cc1OC(=O)OCC as listed: 1% | nt

The list goes on:
SMILES | HTT promoter inh | PMP22 txn
CC1Cc2ccccc2N1C(=O)CSc1nnc(-c2ccccc2Cl)o1 (centres undefined) | -1% | 3%
CSc1ccc(CC2C(=O)Nc3ccccc32)cc1 (centres undefined) | -8% | -16%
Cc1ccc(-c2nn3c(=O)cc(CN4CCN(C(=O)Nc5cc(Cl)ccc5C)CC4)nc3s2)cc1 | -16% | 3%
COc1cccc2c1C(=O)c1c(O)c3c(c(O)c1C2=O)C[C@@](O)(C(=O)CO)C[C@@H]3O[C@H]1C[C@H](N)[C@H](O[C@@H]2CCCCO2)[C@H](C)O1 | -29% | nt
CCOc1ccc(Nc2nc3ccccc3n3c(CC)nnc23)cc1 | -8% | ?
CCCSc1nc2c([nH]c3ccccc32)c(=O)n1C | -2% | -13%
CCS(=O)(=O)N1CCc2cc(C(=O)N3CCN(c4ccccc4)CC3)ccc21 | -10% | -59%
CCOc1ccc(-n2c(=O)c3c4c(sc3n(CC(=O)NC(C)CC)c2=O)CCCCC4)cc1 (centres undefined) | -3% | 8%
COc1ccc(NC(=O)c2cnc[nH]2)cc1 | 66%[activator] | 9%
CN(C(=O)CN1C(=O)CCSc2ccc(S(=O)(=O)N3CCCC3)cc21)c1ccccc1 | -11% | ?
Cc1ccc(S(=O)(=O)c2cn(Cc3cccc(C)c3)c3cc4c(cc3c2=O)OCO4)cc1 | -5% | -21%
Cc1nc(S(=O)(=O)N2CCN(c3cccc(Cl)c3)CC2)cn1C | -3% | -35%
CC(=O)c1cc(-c2ccc(F)cc2)n(CC(=O)NC(C)c2ccccc2)c1C (centres undefined) | -12% | ?
CCOC(=O)c1c(C)n(-c2ccc(OC)cc2)c2ccc(OC(=O)COc3ccccc3)cc12 | -31% | ?
COc1cc(Cl)c(NS(=O)(=O)c2ccc3[nH]c(=O)ccc3c2)c(OC)c1 | -19% | -22%
COc1ccc(CCNC(=O)c2ccc3c(c2)N(Cc2cc(C)ccc2C)C(=O)c2ccccc2S3=O)cc1OC (centres undefined) | -24% | -2%
Cc1ccc(-c2nc3ccccn3c2Nc2ccc3c(c2)OCO3)o1 | 9% | ?
COc1ccc(S(=O)(=O)Nc2cc(-c3c(O)ccc4ccccc34)c(O)c3ccccc23)cc1 | ? | nt
Cc1ccc(C)c(Cn2c(=O)n(CC3CCC(C(=O)N4CCOCC4)CC3)c(=O)c3sccc32)c1 (centres undefined) | 2% | ?
O=C(Nc1ccc(F)cc1)c1ccc(-n2cnnc2)cc1 | 0% | -26%
CCOc1ccc(C(=O)N(Cc2cc(OC)c(OC)c(OC)c2)c2ccccn2)cc1 | ? | ?
CC(C)(C)OC(=O)N1CCC(c2c(C(=O)N3CCN(c4ncccn4)CC3)cnn2-c2ccc(F)cc2)CC1 | -19% | -17%
COc1ccc(CN(C)S(=O)(=O)c2nnc(NC(=O)C(C)C)s2)cc1OC | ? | ?
COC(=O)c1ccc(NC(=O)Cn2cnc3c2c(=O)n(C)c(=O)n3C)cc1 | -2% | -31%
CCOc1ccccc1CNC(=O)c1ccc(-n2c(C)cc3c2CCC(C)C3)cc1 (centres undefined) | 14% | ?
Cc1cc(=O)n(Cc2c(F)cccc2Cl)c2c1c(C)nn2C | 0% | -9%
Cc1cc(C)cc(NS(=O)(=O)c2ccc3c(c2)NC(=O)C(C)S3)c1 (centres undefined) | -26% | -33%
Cc1cccc(Nc2nn3c(=O)c4cc5c(cc4nc3s2)OCO5)c1 | -14% | -26%
COc1ccc2nc(N(Cc3cccnc3)C(=O)c3ccc(Cl)cc3)sc2c1 | ? | -3%
CC(C)Oc1ccc(C(=O)Nc2nonc2-c2ccc(OC(C)C)cc2)cc1 | 1% | -30%
COc1ccc(C(=O)c2cn(Cc3ccccc3F)c3cc4c(cc3c2=O)OCCO4)cc1OC | 15% | 0%
Cc1ccccc1Cn1c(CN2CCC(C(=O)NCCN(C)C)CC2)cc2ccccc21 | -15% | ?
Cc1ccc2c(c1)C(c1ccccc1)N(C(=O)c1ccccc1F)CC(=O)N2 (centres undefined) | -28% | 18%
CC1=C(C(=O)NCc2cccc(F)c2)C2(CCCCCC2)OC1=O | -6% | -7%
CCOc1ccc(OCC)c(NC(=O)CC(C)n2nc(C)cc2C)c1 (centres undefined) | -4% | -12%
Cc1ccccc1-c1noc(CSc2nc(-c3ccc(F)cc3)cc(=O)[nH]2)n1 | 7% | -2%
CCc1ccc(NC(=O)c2cnn(-c3ccccc3)c2-n2cccc2)cc1 | ? | -111%
Nc1nn(-c2ccccc2)nc1C(=O)OCc1ccc(Cl)cc1 | 4% | -3%
O=C(COc1ccccc1)Nc1ccc2nc(SCCOc3ccccc3)sc2c1 | 4% | -19%
Cc1cc(C)cc(NC(=O)NCC2CCN(Cc3cc(C)ccc3C)CC2)c1 | -14% | ?
CCOC(=O)c1ccc(NS(=O)(=O)c2ccc3c(c2)CCN3C(=O)CC)cc1 | ? | ?
COc1cc2c(cc1OC)-c1cc(=Nc3c(C)cc(C)cc3C)n(C)c(=O)n1CC2 | 4% | nt
CCc1nc2nc(C)cc(Nc3cc(Cl)ccc3OC)n2n1 | 1% | -1%
COc1ccc(-c2[nH]c3ccccc3c2SCCNC(=O)c2ccc(S(=O)(=O)N(C)C)cc2)cc1 | ? | -20%
Cc1ccc2nc(NC(=O)CSc3ncc(C(=O)Nc4ccc(F)cc4)c(=O)n3C)sc2c1 | 11% | -1%
COCCCNC(=O)c1c(NC(=O)c2cc(=O)c3cc(C)c(C)cc3o2)sc2c1CCCC2 | 0% | -26%
Cc1ccc(NC(=O)CN2C(=O)c3ccccc3Sc3ccc(C(=O)N4CCCC4)cc32)cc1 | 9% | -13%
CCc1ccc(CNC(=O)c2ccc(NC(=O)N3CCSc4ncccc43)cc2)cc1 | -27% | 4%
